Bioassay records as filed in PubChem.
FPRL1 ligand = human FPRL1 ligands by binding competition, primary screen, cell-based, FPR counter-screen, flow cytometry. FPRL1-expressing cells, fluorescent ligand binding inhibition. inhibition, %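 (tested at 6.7 µM)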. hit rate 0.3% among 24,000. AID 441, 2006;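 further: 0% = buffer alone and 100% = receptor blocker peptide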
Target sequence (P25090 whole entry, looked up): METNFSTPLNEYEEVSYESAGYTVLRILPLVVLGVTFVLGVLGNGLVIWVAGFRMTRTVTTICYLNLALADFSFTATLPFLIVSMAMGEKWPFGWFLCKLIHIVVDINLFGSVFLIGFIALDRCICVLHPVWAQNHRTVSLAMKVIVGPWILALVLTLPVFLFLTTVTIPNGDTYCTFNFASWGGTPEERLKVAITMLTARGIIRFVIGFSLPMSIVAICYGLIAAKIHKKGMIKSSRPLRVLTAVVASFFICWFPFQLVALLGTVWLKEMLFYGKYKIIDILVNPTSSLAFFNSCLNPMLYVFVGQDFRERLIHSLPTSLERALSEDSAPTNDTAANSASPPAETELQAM
VCAM-1 down = inhibitors of TNFa-induced VCAM-1 surface display, cell-based, plate reader, pooled HUVEC, TNFa stimulus (AID 454); HUVEC TNFa-induced VCAM-1 surface immunofluorescence, plate reader; numbers were filed only for top-ranked candidate wells; inhibition, % at 5 µM; hit rate 0.2% among 10,000;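 active means compound among top-ranked inhibitors of TNF-induced VCAM-1 adhesion protein staining, with the hit upheld by image or statistical review; inactive means the rest, including hits rejected on review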;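 further: 0% = TNFa with vehicle and 100% = cells without TNFa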
FPR ligand = human FPR ligands by binding competition, primary screen, cell-based, FPRL1 counter-screen, flow cytometry; hit rate 0.74% among 24,000; inhibition, %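 (tested at 6.7 µM)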; FPR-expressing cells, fluorescent ligand binding; AID 440, 2006; fMet-Leu-Phe receptor (Homo sapiens), P21462;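 further: 0% = buffer wells and 100% = receptor blocker peptide wells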
Target sequence (P21462 whole entry, looked up): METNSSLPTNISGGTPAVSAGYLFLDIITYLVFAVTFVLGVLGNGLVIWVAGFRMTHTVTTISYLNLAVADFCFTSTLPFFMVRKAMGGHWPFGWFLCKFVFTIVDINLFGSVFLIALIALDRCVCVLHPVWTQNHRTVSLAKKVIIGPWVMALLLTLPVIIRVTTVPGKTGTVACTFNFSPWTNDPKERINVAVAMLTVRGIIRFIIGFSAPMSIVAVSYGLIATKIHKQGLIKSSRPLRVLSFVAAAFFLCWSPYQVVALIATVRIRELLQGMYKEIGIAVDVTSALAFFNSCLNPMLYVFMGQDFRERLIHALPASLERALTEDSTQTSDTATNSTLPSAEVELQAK
VCAM-1 down imaging = inhibitors of TNFa-induced VCAM-1 surface display, imaging, high-content imaging, pooled HUVEC, TNFa stimulus (AID 456). hit rate 0.2% among 10,000. HUVEC TNFa-induced VCAM-1 surface expression, immunofluorescence imaging; numbers were filed only for top-ranked candidate wells. inhibition, % at 5 µM; hits with a dose series show IC50 in µM;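 active means top tenth filtered wells with inhibition above zero that passed visual or statistical confirmation; inactive means the rest, including hits rejected on review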;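 further: 0% = stimulated vehicle wells and 100% = unstimulated cells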
VCAM-1 augmentation = enhancers of VCAM-1 display on endothelial cells, imaging, high-content imaging, pooled HUVEC, TNFa stimulus (AID 457) | Pooled HUVEC, TNFa-induced VCAM-1 immunofluorescence imaging; hits of this screen are not shown here | hit rate 0.2% among 10,000 | calls only;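 active means a top-ranked rise in VCAM-1 staining upheld on image or statistical review; inactive means the rest, including candidates rejected on review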;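 further: compounds tested at 5 µM in the well; cells exposed to compound for 24 hours before fixing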
Active calls of the source: *; i = inactive; nt = no result given.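 How the source made its calls, unless noted: active means mean above 30%; inconclusive means self-fluorescent; inactive means the rest.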 An excerpt (hit frequency here may not be typical).

Values run as follows: FPRL1 ligand	VCAM-1 down	FPR ligand	VCAM-1 down imaging	VCAM-1 augmentation
> COC(=O)c1cn(NC(=O)C2CCCO2)c(=O)c2ccccc12 (centres undefined)
  6.9	i	7.2	i	i
> COc1cc(NC(=O)CC(C)C)ccc1NC(=O)c1ccco1
  2.0	i	-3.6	i	i
> Cc1c(NC(=O)C23CC4CC(CC(C)(C4)C2)C3)c(=O)n(-c2ccccc2)n1C
  -22.8	nt	0.3	nt	nt
> CCOC(=O)c1ccc(NS(=O)(=O)c2ccc3c(c2)oc(=O)n3C)cc1
  3.6	i	-1.6	i	i
> Cc1ccccc1CS(=O)(=O)Cc1ccc(C(=O)NCc2ccco2)o1
  -7.6	nt	-2.9	nt	nt
> CC(CN1CCOCC1)(NS(=O)(=O)c1ccccc1)c1ccccc1 (centres undefined)
  2.1	i	-2.2	i	i
> CSc1nnc(-c2ccc(NC(=O)CCc3ccccc3)cc2)n1C
  -2.0	i	-3.2	i	i
> COc1ccc(C2C(C(=O)N3CCN(c4ccccc4)CC3)c3ccccc3C(=O)N2C)cc1 (centres undefined)
  5.2	nt	3.0	nt	nt
> COc1ccccc1Oc1coc2c(CN3CCN(C)CC3)c(O)ccc2c1=O
  -4.8	i	-3.5	i	i
> CCOc1ccc(C(=O)Nc2cccc(-c3nc4cccnc4o3)c2)cc1Cl
  -24.9	nt	-4.3	nt	nt
> CCOCCn1c(CN2CCN(c3cccc(Cl)c3)CC2)nc2c1c(=O)n(C)c(=O)n2C
  2.9	i	-0.7	i	i
> CCOC(=O)N1CCC(NC(=O)c2ccc3c(c2)sc2nc(-c4cccc(OC)c4)cn23)CC1
  -4.2	i	-2.4	i	i
> O=C(CN1CCN(c2nc(-c3ccc(F)cc3)cs2)CC1)NCc1ccc2c(c1)OCO2
  -4.3	i	-8.3	i	i
> COC(=O)C(C)Sc1nc2c(c(=O)n(C)c(=O)n2C)n1Cc1cccc(C)c1 (centres undefined)
  -1.0	i	9.1	i	i
> CCOC(=O)N1CCC(NC(=O)C2CCN(S(=O)(=O)c3cccs3)CC2)CC1
  6.7	nt	2.1	nt	nt
> O=C1CCc2cc(S(=O)(=O)N3CCN(c4cccc(C(F)(F)F)c4)CC3)ccc2N1
  0.8	nt	4.6	nt	nt
> Cn1c(=O)c2cc(S(=O)(=O)NC(C(=O)Nc3cccnc3)c3ccccc3)ccc2n(C)c1=O (centres undefined)
  11.3	nt	5.6	nt	nt
> Cc1cccc(NC(=O)C2CCCN(S(=O)(=O)c3cccc4nsnc34)C2)n1 (centres undefined)
  -2.0	nt	1.8	nt	nt
> CC1CCN(C(=O)Cn2c(=O)oc3ccccc32)CC1
  -1.7	i	-1.7	i	i
> Cc1c[n+]([O-])n(-c2ccc(C(=O)O)cc2)n1
  1.4	nt	2.6	nt	nt
> CCC(C)(C)n1nnnc1C(c1cc2cc(C)ccc2[nH]c1=O)N1CCCC1 (centres undefined)
  -8.9	i	10.8	i	i
> Cc1nnc(SCC2=C(C(=O)O)N3C(=O)[C@@H](NC(=O)Cn4cnnn4)[C@H]3SC2)s1
  -1.3	i	-1.7	i	i
> CCCC(=O)Nc1nnc(CC(=O)OCC)s1
  7.2	i	9.1	i	i
> O=C(CCN1CCN(CC(=O)Nc2ccccc2Cl)CC1)Nc1ccccc1F
  9.0	nt	-0.2	nt	nt
> O=C(COc1ccc(Cl)cc1)NCc1nnc(SCC(=O)Nc2ccccc2)o1
  -11.1	nt	6.3	nt	nt
> CN(Cc1nc(-c2ccncc2)no1)S(=O)(=O)c1ccc(Cl)cc1
  5.8	i	-3.5	i	i
> COc1ccccc1NC(=O)C1=C(C)Nc2nnnn2C1c1ccncc1 (centres undefined)
  -2.7	nt	7.0	nt	nt
> CCN(CCCNS(=O)(=O)c1ccc2c(c1)CCN2C(C)=O)c1cccc(C)c1
  -0.3	nt	2.3	nt	nt
> FC(F)(F)c1cccc(NCc2cn3cccnc3n2)c1
  -2.3	nt	-3.3	nt	nt
> CCCc1cc(=O)[nH]c(=S)[nH]1
  -1.3	i	4.2	i	i

Continued:
Values run as follows: FPRL1 ligand	VCAM-1 down	FPR ligand	VCAM-1 down imaging	VCAM-1 augmentation
> COc1ccc(C)cc1NC(=O)CCC(=O)Nc1ccc2nc(N3CCN(C)CC3)cc(C)c2c1
  -2.2	i	-2.1	i	i
> CCC(C)N1C(=O)c2ccccc2C1C(=O)NC1CCCCCC1 (centres undefined)
  -2.3	nt	-1.0	nt	nt
> CC(=O)Nc1nnc(S(N)(=O)=O)s1
  5.0	i	-4.8	i	i
> CCCOc1cccc(C2/C(=C(/O)c3ccccc3)C(=O)C(=O)N2CCN(C)C)c1 (centres undefined)
  -3.2	i	7.2	i	i
> C=CCSc1nnc(-c2c[nH]c3ccccc23)n1CCOC
  4.8	nt	4.3	nt	nt
> O=C(O)c1cc(-c2ccncc2)nc2ccc(S(=O)(=O)N3CCOCC3)cc12
  2.3	nt	-2.6	nt	nt
> CCOc1ccc(NC(=O)CC2NCCNC2=O)cc1 (centres undefined)
  1.1	i	-3.6	i	i
> COc1ccc(-c2nc3n(n2)C(c2ccncc2)C(C(N)=O)=C(C)N3)cc1 (centres undefined)
  2.8	nt	0.0	nt	nt
> C=CCn1sc(=N)c(C#N)c1N
  5.3	nt	-4.1	nt	nt
> O=C(Nc1cccc(F)c1)N1CC=C(n2c(=O)[nH]c3ccccc32)CC1
  2.6	i	0.2	i	i
> CN(CCCNC(=O)COc1cc(=O)n(C)c2ccccc12)Cc1ccccc1
  -0.6	nt	-0.1	nt	nt
> CCOC(=O)N1CCN(C(=O)CSc2nnc(CNC(=O)c3ccccc3F)o2)CC1
  5.5	nt	6.6	nt	nt
> Cc1n[nH]c(C)c1S(=O)(=O)N(CC(=O)NC1CCCC1)c1ccc(C(C)C)cc1
  -6.6	nt	5.5	nt	nt
> CCc1nnc(NC(=O)CN2CCN(c3ccccc3OC)CC2)s1
  -3.6	i	1.5	i	i
> O=C(Cn1c(=O)oc2cc(S(=O)(=O)N3CCCCCC3)ccc21)NC1CCCCC1
  -3.6	nt	-1.3	nt	nt
> COc1ccc(C/C(N)=N/n2cnnc2)cc1Cl
  -46.4	i	-32.3	i	i
> CC1(C2(O)CC(c3ccccc3)ON2)CCCCC1 (centres undefined)
  12.5	i	21.3	i	i
> COC(=O)c1cc(=O)nc2sc(-c3ccccc3)nn12
  0.1	nt	2.0	nt	nt
> O=C(O)Cc1ccc(NC(=O)C2CCCCC2C(=O)O)cc1 (centres undefined)
  -3.1	nt	-9.4	nt	nt
> COC(=O)c1cccc(C(=O)Nc2ccc(C)cc2)n1
  1.8	nt	-4.7	nt	nt
> CCCn1c2c(c(O)c(C(=O)NC)c1=O)CCCC2
  2.2	i	7.9	i	i
> CSc1ccccc1NC(=O)C1CCCO1 (centres undefined)
  1.7	i	-7.0	i	i
> CCN1CCN(C(=O)C2CCN(Cc3nc(-c4ccc(Cl)cc4)oc3C)CC2)CC1
  -2.0	nt	-12.4	nt	nt
> CCOC(=O)C1=C(C)Nc2nc(C)nn2C1c1ccc(OC)c(OC)c1 (centres undefined)
  1.3	nt	-2.2	nt	nt
> O=C(Cn1cnc2ccccc2c1=O)NCCC(=O)Nc1ccc2c(c1)OCCO2
  1.4	nt	-0.5	nt	nt
> Cc1ccc(NC(=O)c2noc3c2CCCCC3)cc1C
  -2.0	nt	-3.7	nt	nt
> COCCn1c(=S)[nH]c2cc(C(=O)N3CCc4ccccc43)ccc2c1=O
  1.0	nt	3.8	nt	nt
> COc1ccccc1-c1c(C)oc2cc(OC(=O)c3ccco3)ccc2c1=O
  -1.3	nt	68.3*	nt	nt
> CCOc1nc2ccccc2nc1NS(=O)(=O)c1ccccc1
  -2.2	i	-2.2	i	i
> N#Cc1ccc(CSc2nnc(-c3cnccn3)o2)cc1
  -12.0	i	-10.3	i	i

A portion of the results above, for reference:
Values run as follows: FPRL1 ligand	VCAM-1 down	FPR ligand	VCAM-1 down imaging	VCAM-1 augmentation
> CCCn1c2c(c(O)c(C(=O)NC)c1=O)CCCC2
  2.2	i	7.9	i	i
> CSc1ccccc1NC(=O)C1CCCO1 (centres undefined)
  1.7	i	-7.0	i	i

Continued.
Values run as follows: FPRL1 ligand	VCAM-1 down	FPR ligand	VCAM-1 down imaging	VCAM-1 augmentation
> Cc1c(-n2c(CN3C(=O)c4ccccc4C3=O)nc3ccccc3c2=O)c(=O)n(-c2ccccc2)n1C
  1.2	i	10.6	i	i
> CCOc1cc(C2C(C(=O)OC)=C(C)N=C3SC(C)C(=O)N32)ccc1OC(C)=O (centres undefined)
  3.8	nt	5.4	nt	nt
> c1ccc(-n2ncc3c(NCc4cccs4)ncnc32)cc1
  2.5	i	0.2	i	i
> O=C(NC1CCCc2ccccc21)c1ccc(CNc2c(N3CCOCC3)c(=O)c2=O)cc1 (centres undefined)
  0.3	i	2.0	i	i
> Cc1nn(Cc2ccccc2Cl)c(C)c1NC(=O)c1noc2c1CCCCC2
  2.2	nt	2.1	nt	nt
> COCCCN1C(=O)C(O)=C(C(=O)c2ccco2)C1c1ccccc1 (centres undefined)
  0.6	nt	42.9*	nt	nt
> COC(=O)c1ccccc1NC(=O)N1CCCC1
  5.5	i	-2.4	i	i
> CCOC(=O)C(Cc1ccccc1)NC(=O)CCc1c(C)nc2ncnn2c1C (centres undefined)
  -1.9	nt	4.5	nt	nt
> COc1ccc(S(=O)(=O)N2CCN(c3ccc(C)cc3C)CC2)cc1OC
  4.5	i	3.4	i	i
> CCOC(=O)N1CCN(C(=O)c2ccc3c(c2)NC(=O)C(N2CCOCC2)S3)CC1 (centres undefined)
  2.7	nt	-2.5	nt	nt
> Cc1ccc(CNC(=O)C2c3ccccc3C(=O)N3CCc4ccccc4C23)o1 (centres undefined)
  3.6	nt	4.1	nt	nt
> CCOC(=O)c1oc2c(CN3CCCCC3C)c(O)ccc2c(=O)c1-c1ccc(OC)c(OC)c1 (centres undefined)
  -0.5	nt	-8.9	nt	nt
> Cc1cc(-c2ccccc2)nc(N2CCN(c3ccccn3)CC2)n1
  -10.1	nt	-14.3	nt	nt
> CCOC(=O)c1sc2nc3c(cc2c1N)COC(C)(C)C3
  1.2	i	3.0	i	i
> CN1/C(=C\C(=O)C(F)F)C(C)(C)c2ccccc21
  0.8	i	-9.0	i	i
> COc1ccccc1C(=O)Nc1cc(-c2nn3c(C)nnc3s2)ccc1C
  -2.6	nt	-14.4	nt	nt
> CCOC(=O)c1sc(=S)n(-c2cc(F)ccc2F)c1N
  -3.2	nt	-1.3	nt	nt
> COCCCNC(=O)CCCn1c(=O)[nH]c2ccccc2c1=O
  1.1	nt	-2.0	nt	nt
> CCOc1ccc(C2CC(=O)NC3=C2C(=O)CCC3)cc1Cl (centres undefined)
  1.9	i	0.2	i	i
> Cc1ccc(C2C(C(=O)c3cc4ccccc4o3)=C(O)C(=O)N2CCN(C)C)o1 (centres undefined)
  -7.6	nt	-3.6	nt	nt
> CC#CCCCC(=O)Nc1ccccc1C(=O)O
  7.5	nt	1.3	nt	nt
> CCOC(=O)c1cccc(-n2c(C)nc3ccccc3c2=O)c1
  -1.1	nt	-3.1	nt	nt
> COC(=O)Nc1nc(C)c(C(=O)N(C)C)s1
  4.3	nt	8.0	nt	nt
> CC(C)NCC(O)COc1cccc2[nH]ccc12 (centres undefined)
  2.1	i	-1.6	i	i
> CCN(CC)S(=O)(=O)c1ccc(S(=O)(=O)N(Cc2ccccn2)Cc2ccco2)cc1
  -11.4	i	-6.9	i	i
> c1ccc(Cn2nnnc2C(c2ccccn2)N2CCOCC2)cc1 (centres undefined)
  10.0	i	4.0	i	i
> COc1ccc(OC)c(C2C(C(=O)c3ccco3)=C(O)C(=O)N2CCCN2CCOCC2)c1 (centres undefined)
  1.3	nt	49.8*	nt	nt
> CCOC(=O)CN1C(=O)SC(CC(=O)Nc2nccs2)C1=O (centres undefined)
  5.1	nt	-1.0	nt	nt
> COC(=O)c1cc(Br)c(=O)n(-c2ccc(OC)cc2)c1
  2.3	i	2.6	i	i
> O=C(CSc1nnc(-c2ccc(Cl)s2)o1)N1CCOCC1
  0.1	nt	12.9	nt	nt

Next part.
Values run as follows: FPRL1 ligand	VCAM-1 down	FPR ligand	VCAM-1 down imaging	VCAM-1 augmentation
> CC(C)NC(=O)CCS(=O)(=O)c1ccc(Br)s1
  -0.9	nt	1.2	nt	nt
> CCN(CC)C(=O)C1CCN(CC2CC=CCC2)CC1 (centres undefined)
  7.7	i	2.3	i	i
> C=CCn1c(=O)c(C#N)cc2c(=O)n3ccccc3nc21
  -17.6	nt	-6.6	nt	nt
> CCOC(=O)Cn1c(S(=O)(=O)Cc2ccccc2)nc2ccccc21
  -2.2	i	-3.8	i	i
> CCOc1ccc(CCNC(=O)C2CC(=O)N(C3CCCC3)C2)cc1OCC (centres undefined)
  11.6	nt	-0.3	nt	nt
